# Source: PubChem BioAssay
# eIF4H inh = inhibitors of RNA binding by human eIF4H; eIF4H fluorescence polarization binding assay; inhibition, % at 35 µM; hit rate 0.94% among 290,000; AID 2012;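 active = 50% or more with normal probe brightness, or confirmed in later tests; about a fifth of its hits are not listed in these tables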;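 note: calls also rest on retests at 20 µM and on dose response follow-up; 0% = protein and probe with vehicle and 100% = probe without protein; strong numbers were not always called active; many hits fall short of the cut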
# Rce1 inh = inhibitors of yeast Ras-converting enzyme; yeast membranes, quenched prenylated peptide cleavage fluorescence; hit rate 0.27% among 290,000; calls only; AID 2563;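 active = fall in fluorescence gain of 50% or more versus controls, with final raw signal at or below 3038400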;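 note: plate controls were neutral control wells for no effect and wells lacking membranes for full effect; tested at 10 µM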
# CSC inhib = blocks cancer stem cells | cancer stem cell-like cells viability, luminescence | inhibition, % at 7.5 µM | hit rate 1.1% among 300,000 | AID 2717;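 active = mean at 75% or more and at least half the replicates too; tested in HMLE shEcad cells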;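 note: 0% = median of negative and 100% = median of positive control wells; the first replicate is given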
# UUG fidelity = yeast start codon fidelity modulation | S. cerevisiae UUG-firefly luciferase reporter, luminescence/redox ratio | activity score, % at 18.7 µM | hit rate 0.13% among 350,000;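 active = replicate mean at a twofold rise or more, about +100% in these data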;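 note: firefly luciferase made from a UUG start codon reports start codon fidelity; reporter light over untreated wells divided by growth signal over untreated wells; some hits fall short of that in this replicate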
# MT1-MMP act inh = blocks activation of human MT1-MMP. AID 651647. GFP/RFP ratio change, % at 20 µM. HT1080 RFP-PRO-GFP cells, GFP/RFP ratio fluorescence, overnight; percent of plate control window, DMSO zero. hit rate 0.061% among 360,000. P50281;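 active = GFP/RFP ratio change of at least 30% with cell ATP level not reduced by more than half and red fluorescence within 50% of control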; note: strong numbers were not always called active
#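 Read-out: GFP/RFP fluorescence ratio; Test system: RFP-PRO-GFP reporter HT1080 cells; Compound dosing: single-point 20 µM compound, 1% DMSO; Times: overnight compound exposure at 37 °C.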
# HIV Env fusion = blocks HIV Env-driven cell-cell fusion; hit rate 1.1% among 360,000; HeLa-JRFL Env/CEM21 cell fusion, luciferase; AID 651610; inhibition, % at 12.3 µM;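 active = mean replicate inhibition score of at least 50 and every replicate individually at or above 50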;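 note: 0% = plate neutral controls and 100% = maraviroc near 300 nM; one replicate is shown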
# PABP polyA inh = PABP-poly(A) binding inhibition; inhibition, % at 35 µM; PABP-poly(A) RNA binding, fluorescence polarization; P11940; hit rate 1% among 290,000;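 active = 50% or more with normal probe brightness, or confirmed in later tests; about a fifth of its hits are not listed in these tables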;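 note: calls also rest on retests at 20 µM and on dose response follow-up; controls were probe without protein and protein plus probe with vehicle; some compounds called inactive have numbers as strong as hits; many hits fall short of the cut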
# Target sequence (P11940 whole entry, looked up): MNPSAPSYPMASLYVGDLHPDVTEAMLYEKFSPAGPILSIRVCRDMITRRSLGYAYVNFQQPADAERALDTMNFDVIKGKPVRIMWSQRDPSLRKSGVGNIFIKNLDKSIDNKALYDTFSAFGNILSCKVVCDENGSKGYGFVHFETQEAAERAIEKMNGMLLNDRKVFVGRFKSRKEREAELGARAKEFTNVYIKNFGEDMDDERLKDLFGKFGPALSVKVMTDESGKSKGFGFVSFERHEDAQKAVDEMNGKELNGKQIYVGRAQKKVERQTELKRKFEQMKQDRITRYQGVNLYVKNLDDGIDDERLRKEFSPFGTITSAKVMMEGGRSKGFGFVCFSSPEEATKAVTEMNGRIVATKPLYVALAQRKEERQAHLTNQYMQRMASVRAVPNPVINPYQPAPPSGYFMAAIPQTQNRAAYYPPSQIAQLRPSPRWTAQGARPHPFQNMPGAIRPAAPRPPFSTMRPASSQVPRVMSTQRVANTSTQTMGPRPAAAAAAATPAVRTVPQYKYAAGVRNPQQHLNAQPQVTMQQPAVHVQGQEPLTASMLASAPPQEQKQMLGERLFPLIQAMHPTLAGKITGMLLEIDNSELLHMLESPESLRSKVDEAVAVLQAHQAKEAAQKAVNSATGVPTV
# eIF4H inh retest = recorded beside eIF4H inh, whose call it bears; inhibition, %; compound at 20 µM; confirmation average;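 mean of two retest wells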
# PABP polyA inh retest = further read-out of PABP polyA inh, marked with its call; inhibition, %; compound at 20 µM; confirmation repeats;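 mean of two retest wells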
# MT1-MMP act inh RFP = further read-out of MT1-MMP act inh, marked with its call; RFP signal change, %; measured here: RFP expression control read;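 0 = vehicle wells; hits needed this value within 50% of zero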
# * = called active by the depositor; i = inactive; . = no result given.
SMILES,eIF4H inh,Rce1 inh,CSC inhib,UUG fidelity,MT1-MMP act inh,MT1-MMP act inh RFP,HIV Env fusion,PABP polyA inh,others
Cc1ccc(S(=O)(=O)N2CCN(C(=O)c3c(-c4ccccc4)noc3C)CC2)c(C)c1,1,i,-9,-10,-2,0,-2,9,
CC1(C(=O)NS(=O)(=O)c2ccc3ccccc3c2)CCN1C(=O)Cc1ccc(Cl)cc1Cl (configuration not stated),.,.,.,-9,2,2,-20,.,
Cc1ccc(NC(=O)CN(C)C(=O)CNC(=O)c2cccs2)cc1,.,i,.,-10,2,2,-3,.,
CCC1CCCCN1CCCNC(=O)c1ccc2c(=O)n(CCOC)c(=O)[nH]c2c1 (configuration not stated),-14,.,-4,11,0,2,-24,-14,
CCCC(=O)Nc1nnc(/C=C/c2ccc(OC)cc2)s1,2,i,0,.,0,-2,10,-9,
Cc1ccc(OCCn2nc3ccccc3n2)c(C)c1,-3,i,-14,2,-1,-2,-165,-4,
O=C(NCCCNC(=O)c1ccccc1Cl)c1cnccn1,3,i,-14,-16,-1,1,-9,4,
CC(=NOC(=O)c1ccc(F)cc1)c1nccs1,.,.,.,-41,1,3,-20,.,
CC1CC(C)CN(CCC(=O)Nc2ccc3c(c2)CCC3)C1 (configuration not stated),-20,i,12,.,5,5,4,0,
O=C(NCCNC(=O)c1ccccn1)c1ccccc1,2,i,8,-5,2,3,-2,7,
O=C(CSc1nnc(-c2cccnc2)o1)Nc1ccc(Cl)cc1,-4,.,4,.,1,0,-22,-4,
CCOc1ccc(S(=O)(=O)N2CCCCC2)cc1NC(=O)C1CSC2(C)CCC(=O)N12 (configuration not stated),.,i,-13,-12,-3,-12,-4,.,
Cc1c(C(=O)NCC2CCCO2)oc2ccc3c(c12)C(=O)CC(C)(C)O3 (configuration not stated),-5,i,-3,-29,4,1,.,-10,
OC[C@@H]1CN(C2CCCC2)C[C@H](n2cnc3c(NC4CCC4)ncnc32)O1,.,.,.,-27,1,2,11,.,
O=C1c2cccc3cccc(c23)C(=O)N1c1ccc2ncccc2c1,-24,.,-12,-4,0,-7,-82,-8,
Cc1c(C(=O)Nc2ccc(F)c(F)c2)oc2ccc(S(=O)(=O)N3CCCCC3)cc12,2,i,4,3,-3,-9,.,7,
O=C(CSc1ccc(Cl)cc1)N1CCOCC1,-4,i,-15,-4,-10,3,7,-9,
Cc1ccc(/C=N/N2CCN(c3ccccn3)CC2)cc1,-3,i,-10,.,0,-4,-13,-2,
COC(=O)Cc1c(C)nc2nc(-c3cccnc3)[nH]n2c1=O,2,i,-3,-6,8,6,22,14,
CC(=O)Nc1ccc(SC[C@H](C)CN2CC[C@H](O)CCC2=O)cc1,.,.,-3,-15,0,-1,-27,.,
C=CCO/N=C(/C)c1ccc(Oc2cnccn2)cc1,7.9*,i,0,.,1,3,-12,74*,eIF4H inh retest=95*;PABP polyA inh retest=67*
O=C(Cn1cccc1)Nc1ccc(F)cc1F,-6,i,-4,-38,3,3,-1,5,
CC(=O)c1cccc(OCC(O)CN2CCN(C(=O)c3ccco3)CC2)c1 (configuration not stated),0,i,-9,2,1,2,-11,5,
O=C(CNC(=O)c1ccccc1)OCCOc1cccc(Cl)c1,.,i,-15,-13,-1,5,0,.,
OC[C@@H]1CN(Cc2ccc(F)cc2)C[C@H](n2cnc3c(N4CCCC4)ncnc32)O1,.,.,.,-17,3,4,-42,.,

# The list goes on, overlapping the part above by 4 compounds.
SMILES,eIF4H inh,Rce1 inh,CSC inhib,UUG fidelity,MT1-MMP act inh,MT1-MMP act inh RFP,HIV Env fusion,PABP polyA inh,others
O=C(Cn1cccc1)Nc1ccc(F)cc1F,-6,i,-4,-38,3,3,-1,5,
CC(=O)c1cccc(OCC(O)CN2CCN(C(=O)c3ccco3)CC2)c1 (configuration not stated),0,i,-9,2,1,2,-11,5,
O=C(CNC(=O)c1ccccc1)OCCOc1cccc(Cl)c1,.,i,-15,-13,-1,5,0,.,
OC[C@@H]1CN(Cc2ccc(F)cc2)C[C@H](n2cnc3c(N4CCCC4)ncnc32)O1,.,.,.,-17,3,4,-42,.,
CCOC(=O)c1c(NC(=O)/C=C/C(=O)O)sc(C)c1-c1ccc(C)c(C)c1,3,i,55,.,-3,-3,-17,1,
Cc1ccccc1NC(=O)CSc1ccc(-c2ccc(-n3cccn3)cc2)nn1,.,i,-6,-8,8,1,4,.,
Cc1ccc(C(=O)Cn2c(NCCO)nc3ccccc32)cc1,9,i,-8,0,-9,-9,.,5,
CC(C)(C)S(=O)N1Cc2cc(C(=O)NCCCN3CCOCC3)nc(-c3cccc(-c4cc5ccccc5o4)c3)c2[C@H]1CCO (some centres not stated),.,.,.,31,-5,-1,17,.,
CN(CC(=O)Nc1ccc(F)c(F)c1F)C(=O)CCCSc1nc2ccccc2[nH]1,.,i,-7,.,4,1,10,.,
COC(=O)c1c(NC(=O)C2CC=CCC2C(=O)O)sc(C)c1C (configuration not stated),-1,i,.,13,-7,-1,-24,-4,
O=C(N=C1SC2CS(=O)(=O)CC2N1c1ccc(F)cc1F)C1CC1 (configuration not stated),.,i,6,-1,1,3,9,.,
O=C(OCC(=O)N1CCN(c2ccccc2)CC1)c1ccccc1NCCO,.,i,.,.,-1,1,-3,.,
O=C(CSc1nc2nn(-c3ccccc3)c(=O)c-2c2n1CCCCC2)NCCc1ccccc1,-8,i,1,.,0,1,15,4,
COc1ccc(-c2nc(SC(C)C(=O)NCC3CCCO3)n[nH]2)cc1 (configuration not stated),.,i,.,-16,-3,-6,-49,.,
O=C(NC(=S)Nc1ccccc1Br)c1ccco1,-9,i,.,0,-1,1,-19,4,
Cc1ccc(Nc2nc(C(=O)N3CCC(C(=O)NCCN4CCOCC4)CC3)cs2)cc1,3,i,-3,-8,-9,-3,1,0,
COc1cc(C=O)ccc1OCCOCCOc1ccc(Cl)cc1Cl,.,i,4,-7,0,-2,.,.,
O=C(COc1ccccc1Cl)Nc1ccc(C(=O)O)cc1NC(=O)COc1ccccc1Cl,-11,i,1,0,2,3,6,3,
CO/N=C/CC(=O)c1cnc(-c2ccccc2)s1,3,i,1,-24,-5,4,-6,-12,
COc1cccc(NC(=O)Nc2cnccn2)c1,-13,i,-7,.,-1,0,-24,-5,
CC(=O)c1cccc(NC(=O)COc2ccccc2)c1,-7,i,5,-4,3,0,-42,-6,
COc1ccc(N(CC(=O)N2CCOCC2)S(C)(=O)=O)c(OC)c1,-6,i,-6,-5,-1,3,5,-3,
COc1cccc(CNC(=O)CCC2CCCN(C(=O)c3csc(C(C)C)n3)C2)c1 (configuration not stated),-1,i,-14,.,1,-2,11,-2,
Cc1c(C(=O)Nc2ccccc2N2CCN(C)CC2)oc2ccc(F)cc12,.,.,.,-8,2,0,23,.,
CC(C)(C)C(=O)NC(=S)Nc1ccc(Cl)c(C(=O)O)c1,-2,i,13,.,0,1,-9,4,
CNc1nc(Nc2ccc(C(C)=O)cc2)nc(OC(C(F)(F)F)C(F)(F)F)n1,-4,i,-1,14,-8,-10,.,5,
CCOC(=O)C1CCN(C(=O)c2cccc(NS(=O)(=O)c3ccc(Br)cc3)c2)CC1,.,.,.,-9,1,-1,5,.,
CSc1ccccc1NC(=O)C1(C)CCN1C(=O)Cc1ccc(Cl)cc1Cl (configuration not stated),.,.,.,11,19,-3,10,.,
O=C(CNC(=O)C(c1ccccc1)c1ccccc1)OCC(=O)c1cccs1,6,i,5,-7,11,13,13,9,

# Other records follow.
SMILES,eIF4H inh,Rce1 inh,CSC inhib,UUG fidelity,MT1-MMP act inh,MT1-MMP act inh RFP,HIV Env fusion,PABP polyA inh,others
NS(=O)(=O)c1cc(C(=O)OCC(=O)Nc2ccc(N3CCCCC3)cc2)ccc1Cl,-11,i,-6,13,3,2,3,2,
O=C(Nc1ccc(S(=O)(=O)NCc2cccnc2)cc1)c1ccccc1Cl,-4,i,-9,.,-7,-19,14,-3,
O=C(Nc1ccc(-n2cnnn2)cc1)C(c1ccccc1)c1ccccc1,-10,i,-11,.,2,0,-6,62*,eIF4H inh retest=49;PABP polyA inh retest=74*
CCn1ccc(C(=O)N2CCOCC2)n1,-4,i,-5,.,4,-1,14,2,
Cc1cc(C)cc(NC(=O)CSc2nc3[nH]c(=O)cc(O)c3s2)c1,3,i,-3,-3,-3,1,-6,-7,
CC1CN(S(=O)(=O)N(C)C)CCN1S(=O)(=O)N(C)C (configuration not stated),5,i,4,-17,0,7,.,4,
CC(=O)Nc1cc(-c2ccc(F)cc2)cn2c(-c3ccc(F)cc3)cnc12,.,.,.,-6,-7,-3,-14,.,
COc1ccc(Cl)cc1NC(=O)CN1CCN(Cc2ccccc2)CC1,0,i,-14,-1,2,-2,1,-12,
CCNC(=O)NNC(=O)C1CC(c2cccs2)=NO1 (configuration not stated),-2,i,.,-22,-4,3,8,3,
COc1cc(C(=O)Nn2c(O)c(C3=c4ccccc4=NC3=O)sc2=S)ccc1O,-7,i,-2,.,2,3,-11,12,
Cc1cc(C)cc(NC(=O)CN2CCN(c3ccccc3)CC2)c1,-4,i,-12,8,1,3,4,-7,
CCCCNC(=O)CSc1nccn1Cc1ccccc1,-6,i,1,.,-4,0,.,4,
COc1ccccc1CN1CCC(CNS(=O)(=O)c2cc(-c3cc(C)no3)ccc2OC)CC1,0,i,4,-4,-1,0,-3,-1,
CC(C)(C)C(=O)/C=C1\SCC(=O)N1CC(=O)N1CCN(c2ccccc2)CC1,.,.,-15,-8,-2,-3,1,.,
CN(C)CCNC(=O)c1cccc(S(=O)(=O)Nc2ccc(F)cc2)c1,3,i,-7,.,-3,1,-12,-4,
CC(C)(C)c1cc(-c2n[nH]c(=S)n2-c2ccccc2F)n[nH]1,0,i,-15,-15,3,0,-18,2,
Cc1ccc(N/C(CSC(N)=O)=N/S(=O)(=O)c2ccccc2)cc1,-6,i,.,-6,-4,-2,-9,8,
CCn1c(CCC(N)=O)nnc1SCC(=O)Nc1cccc(S(=O)(=O)N2CCCC2)c1,.,.,.,-7,3,4,-4,.,
CC(C)(C)c1csc(NC(=O)CSc2nc3ccccc3c(=O)[nH]2)n1,9,i,44,.,3,1,5,15,
Cc1nn(C(C)C(=O)NC2CCCCC2)c(=O)c2nn(-c3ccccc3)c(C)c12 (configuration not stated),-2,i,-8,2,6,-2,-2,7,
COCON1C(=O)CN(C(C)=O)C1c1ccc(Cl)cc1Cl (configuration not stated),-7,i,-6,-8,2,2,.,-7,
CCc1nn2c(NCCCO)cc(C)nc2c1-c1ccc(F)cc1,-1,i,-11,-7,6,-3,-44,-1,
CC(=O)c1ccc(N2CCN(C(=O)C3CCN(S(=O)(=O)c4ccc(F)cc4)CC3)CC2)cc1,.,.,-2,-8,-1,-10,7,.,
Cc1nn2c(-c3ccccc3)c(-c3ccccc3)nc2[nH]c1=O,3,i,-5,-7,-5,6,.,14,
CN(C)CCSc1nnc2[nH]c3ccccc3c2n1,-3,i,47,.,-1,-8,-15,5,

# New compounds follow
SMILES,eIF4H inh,Rce1 inh,CSC inhib,UUG fidelity,MT1-MMP act inh,MT1-MMP act inh RFP,HIV Env fusion,PABP polyA inh,others
O=c1c(-c2ccccc2)c1-c1ccccc1,-6,i,.,.,.,.,.,6,
Cc1ccccc1OCCC(=O)OCC(=O)NC1CCCC1,.,i,-12,-11,0,-1,-17,.,
CCc1cc(C(=O)N2CCN(c3ccccc3OC)CC2)sc1C,-1,.,7,-12,1,-2,16,-3,
CCn1c(=O)cc(N2CCN(Cc3ccccc3)CC2)[nH]c1=O,-12,i,-1,-15,5,8,-17,-8,
COCCCNC(=O)Cn1cnc2c(OCc3ccccc3)ncnc21,.,.,-4,-13,2,2,-13,.,
COC(=O)c1ccc(C(=O)N2CCCCCC2(C)C(=O)NC(C)C)cc1 (configuration not stated),.,.,.,-6,1,6,25,.,
COc1cccc(NC(=O)Cn2cc3c(n2)CCCCC3)c1,-7,i,.,-4,0,-2,-31,-12,

# Rows were taken by chance (roughly 3% active in at least one column).
